VDR inh = vitamin D3 receptor (human) inhibition | P11473 | VDR-SRC2-3 peptide fluorescence polarization, 2 h | Potency, µM, for the others: max response, negative = inhibition, most hits filed as inhibitors | 400,000 compounds, 0.93% hits | AID 504847; active = well fitted inhibition curve with a large enough effect; inconclusive = small, poorly fitted or top-dose-only effect, or another doubt; inactive = no such curve, though single readings can be large or run the other way; note: series mostly up to about 120 µM
Target sequence (P11473 whole entry, looked up): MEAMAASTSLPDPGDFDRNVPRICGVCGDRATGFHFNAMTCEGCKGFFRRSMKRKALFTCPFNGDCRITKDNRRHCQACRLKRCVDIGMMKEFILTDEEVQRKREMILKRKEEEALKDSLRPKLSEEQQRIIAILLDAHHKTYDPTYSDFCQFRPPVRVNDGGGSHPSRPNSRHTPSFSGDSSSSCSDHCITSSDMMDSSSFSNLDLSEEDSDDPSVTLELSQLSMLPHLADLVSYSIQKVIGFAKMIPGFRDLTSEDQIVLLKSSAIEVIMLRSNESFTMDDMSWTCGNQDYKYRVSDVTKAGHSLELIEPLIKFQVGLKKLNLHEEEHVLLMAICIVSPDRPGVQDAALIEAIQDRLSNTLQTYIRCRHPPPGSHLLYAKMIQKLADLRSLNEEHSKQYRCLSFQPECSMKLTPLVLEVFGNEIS
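VDR–SRC2-3 interaction, FP format. Cmpds 23 nl via pintool, brief spin, 2 h ambient incubation.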
* marks the source's active call; other numbers are inactive results; ? = inconclusive. % is set by controls: 0 for no effect and ±100 for the full control effect; potency is the fitted concentration of half-maximal effect.

CCOC(=O)C1CCN(C(=O)CC2C(=O)N(Cc3ccccc3)C(C)c3nc4ccccc4n32)CC1 (stereo not drawn)
  VDR inh: -2%

CN(C)S(=O)(=O)c1cccc(NC(=O)COC(=O)c2ccc3c(c2)OCO3)c1
  VDR inh: 12%

CNC(=O)c1c[nH]c2ccc(S(=O)(=O)Nc3ccccc3F)cc2c1=O
  VDR inh: 9%

Cc1csc(CN(C)C(=O)CC2C(=O)NCCN2Cc2ccc(F)c(F)c2)n1 (stereo not drawn)
  VDR inh: 9%

Brc1ccc(C=Nc2ccc3c(c2)OCCOCCOCCO3)s1
  VDR inh: 13%

CC(C)(C)N1CC(C(=O)Nc2ccc(S(N)(=O)=O)cc2)CC1=O (stereo not drawn)
  VDR inh: -8%

COC(=O)c1c(NC(=O)c2ccn(C)n2)sc2c1CCC2
  VDR inh: ?

COc1cc(C2c3c(-c4cc(C)ccc4O)n[nH]c3C(=O)N2Cc2ccco2)cc(OC)c1OC (stereo not drawn)
  VDR inh: 20%

C/C(=N\NC(=O)C(=O)Nc1cc(C)ccc1C)c1ccncc1
  VDR inh: -6%

CCN(CC)CCN(CC)Cc1ccccc1Br
  VDR inh: 14%

CC(=O)N1c2ccc(S(=O)(=O)NCC3CCC(C(=O)NCc4ccco4)CC3)cc2CC1C (stereo not drawn)
  VDR inh: -6%

COc1cc2oc3ccccc3c(=O)c2cc1OC
  VDR inh: -6%

CCOc1ccc(Nc2oc(Cc3ccccc3)nc2C#N)cc1
  VDR inh: -1%

CCOC(=O)c1ccc(NC(=O)CC2S/C(=N/N=C3/NC(=O)CS3)NC2=O)cc1 (stereo not drawn)
  VDR inh: 7%

Cc1ccccc1CNC(=O)C1CCCN(c2cnccn2)C1 (stereo not drawn)
  VDR inh: -7%

The final 5 records of the part above come first, to join the parts.
CC(=O)N1c2ccc(S(=O)(=O)NCC3CCC(C(=O)NCc4ccco4)CC3)cc2CC1C (stereo not drawn)
  VDR inh: -6%

COc1cc2oc3ccccc3c(=O)c2cc1OC
  VDR inh: -6%

CCOc1ccc(Nc2oc(Cc3ccccc3)nc2C#N)cc1
  VDR inh: -1%

CCOC(=O)c1ccc(NC(=O)CC2S/C(=N/N=C3/NC(=O)CS3)NC2=O)cc1 (stereo not drawn)
  VDR inh: 7%

Cc1ccccc1CNC(=O)C1CCCN(c2cnccn2)C1 (stereo not drawn)
  VDR inh: -7%

COc1ccc(S(=O)(=O)N2CCCC(C(=O)NCCCn3ccnc3)C2)cc1OC (stereo not drawn)
  VDR inh: -2%

Cn1cc(C(=O)NCC(=O)Nc2ccccc2Br)cn1
  VDR inh: 15%

CCOC(=O)Cn1nc2sc3ccccc3n2c(=O)c1=O
  VDR inh: 5%

COc1cccc(NC(=S)N(CCc2c(C)[nH]c3ccc(C)cc23)Cc2cccs2)c1
  VDR inh: -19%

Cc1ccc(-c2n[nH]c(=S)n2/N=C/C=C/c2ccccc2[N+](=O)[O-])cc1
  VDR inh: -8%

CCCCC(c1nnnn1C1CCCC1)N1CCN(C2CCCC2)CC1 (stereo not drawn)
  VDR inh: 9%

CC(Sc1nc(N)cc(=O)[nH]1)C(=O)Nc1cccc(Cl)c1 (stereo not drawn)
  VDR inh: -4%

Cc1ccccc1CS(=O)(=O)c1ccc(C(=O)N2CCOCC2)cc1[N+](=O)[O-]
  VDR inh: 9%

CCC1NC(=O)c2cc(S(N)(=O)=O)c(Cl)cc2N1 (stereo not drawn)
  VDR inh: 8%

O=C(NCCc1ccc(S(=O)(=O)N2CCCC2)cc1)c1cccs1
  VDR inh: -2%

CCn1nnc(NC(=O)c2cccnc2)n1
  VDR inh: 6%

COC(=O)c1ccc(OCC(O)CN(CC(C)C)CC(C)C)cc1 (stereo not drawn)
  VDR inh: -8%

O=C1C(=O)N(CCN2CCOCC2)C(c2ccccc2)/C1=C(\O)c1ccc2c(c1)OCCO2 (stereo not drawn)
  VDR inh: 2%

O=C(CCc1nc(-c2ccccc2)no1)NCc1ccccc1CN1CCOCC1
  VDR inh: 20%

Cc1cc(C)c2c(-n3cccc3)c(C(=O)NCCCN3CCCCC3C)sc2n1 (stereo not drawn)
  VDR inh: 13%

O=C(CSc1ncn(-c2ccccc2)n1)Nc1ccc2c(c1)OCCO2
  VDR inh: -17%

CCOc1ccc2nc(N(CCCN(C)C)C(=O)c3ccc4c(c3)CCCC4)sc2c1
  VDR inh: 24%

COC(=O)C1=C(C)N(CCc2c[nH]c3ccc(OC)cc23)C(=O)C1
  VDR inh: -5%

COc1ccc(OC)c2sc(N(CCN(C)C)C(=O)/C=C/c3cccs3)nc12
  VDR inh: 26%

O=C1CCC([N+](=O)[O-])C(c2cccc(Br)c2)N1 (stereo not drawn)
  VDR inh: -8%

NC(=O)C1(N2CCCCC2)CCN(C(=S)Nc2cccc(Cl)c2)CC1
  VDR inh: -19%

O=C(NCC1CC1)Nc1cccc(Cl)c1
  VDR inh: 6%

O=C(NNc1ccccc1[N+](=O)[O-])Nc1ccc(F)cc1
  VDR inh: ?

S=c1[nH]nc(-c2ccco2)n1/N=C/c1cccc(Cl)c1
  VDR inh: -7%

O=C(NCc1cccs1)C1CCCN(S(=O)(=O)c2ccc(Br)s2)C1 (stereo not drawn)
  VDR inh: 2%

COc1c(F)c(F)c(C(=O)O)c(Nc2ccccc2C)c1F
  VDR inh: -1%

Fc1ccc(N=C2NN=C(c3cc(F)ccc3F)CS2)cc1
  VDR inh: 32µM*

COc1cccc(C2CCCCN(C)C2=O)c1 (stereo not drawn)
  VDR inh: -6%

N#Cc1cccc(NC(=O)N2CC3(CCN(C(=O)c4ccco4)CC3)C2)c1
  VDR inh: -5%

CC(C)CC(=O)N=C1SC2CS(=O)(=O)CC2N1Cc1ccccc1Cl (stereo not drawn)
  VDR inh: -4%

CC(C)c1ccc(NC(=O)COC(=O)CC2CCCC2)cc1
  VDR inh: 12%

N#Cc1ccc(N/N=C/c2cn(-c3ccccc3)nc2-c2ccccc2)c([N+](=O)[O-])c1
  VDR inh: 5%

Cc1cc(/C=N/NC(=O)CC2(C)OCCO2)c(C)n1-c1ccc(Cl)c(Cl)c1
  VDR inh: 5%

CC(/C=C/c1ccco1)=N/NC(=O)c1ccccc1Cl
  VDR inh: ?

Cc1ccc(NC(=O)CC(C)S(=O)(=O)c2ccc3c(c2)NC(=O)CO3)cc1Cl (stereo not drawn)
  VDR inh: 8%

Cc1ccc(NC(=O)C2CCCN(S(=O)(=O)c3cccc4nsnc34)C2)c(C)c1 (stereo not drawn)
  VDR inh: -26%

COc1cc(OC)cc(C(=O)NNC(=O)c2cc3ccccc3cc2O)c1
  VDR inh: -12%

N#C/C(=C\c1ccc(N2CCOCC2)o1)c1nc2ccccc2[nH]1
  VDR inh: -1%

N#Cc1c(-c2ccc(Cl)cc2)cc(-c2ccccc2)nc1SCC(=O)O
  VDR inh: ?

O=C(N/N=C/c1cccc([N+](=O)[O-])c1)c1cccs1
  VDR inh: 4%

CC(C)(C)C1CCC(C(=O)Nc2ccccc2)CC1 (stereo not drawn)
  VDR inh: -7%

COc1ccc(C)cc1NC(=O)c1oc2ccc(S(=O)(=O)N3CCC4(CC3)OCCO4)cc2c1C
  VDR inh: 3%

COc1ccc(S(=O)(=O)NC(C)C(=O)NCc2ccncc2)cc1C (stereo not drawn)
  VDR inh: -2%

CC(CN1CCCCC1)OC(=O)c1ccco1 (stereo not drawn)
  VDR inh: -20%

Cc1c(-c2nsc(NC(=O)c3ccc(Cl)cc3)n2)nnn1-c1ccc(C(C)C)cc1
  VDR inh: 10%

Cc1ccccc1NC(=O)c1ccc(NC(=O)c2ccco2)cc1
  VDR inh: 7%

CCCCN(CC)CCNC(=O)c1cc2c(=O)[nH]c3ccccc3c2s1
  VDR inh: -8%

CCOC(=O)NN1C(=O)c2ccccc2NC1c1ccc(OC)cc1 (stereo not drawn)
  VDR inh: -1%

COc1cc(/C=N/O)ccc1Oc1ccc([N+](=O)[O-])cc1[N+](=O)[O-]
  VDR inh: -10%

COc1ccc(C2C(C(N)=O)=C(C)Nc3nc(CCCO)nn32)cc1OC (stereo not drawn)
  VDR inh: -10%

CC1=C(C(=O)N2CCOCC2)C(c2cccs2)NC(=O)N1 (stereo not drawn)
  VDR inh: 3%

COc1ccc(S(=O)(=O)N(C)C[C@H]2Oc3ccc(NS(=O)(=O)c4ccccc4)cc3C(=O)N([C@H](C)CO)C[C@@H]2C)cc1
  VDR inh: -13%

CCOc1ccc2[nH]c(=O)c(CN(CCO)C(=O)c3ccccc3F)cc2c1
  VDR inh: 7%

CSc1nc2ccc3nc(NC(=O)c4ccccc4)sc3c2s1
  VDR inh: -15%

CC/C=C(\NC(C)=O)c1ccccc1
  VDR inh: 11%

O=C(Nc1ccc(Br)cc1)C1CCCN1S(=O)(=O)c1ccc(F)cc1 (stereo not drawn)
  VDR inh: 11%

Cc1ccccc1CNC(=O)c1cc2cccc3c2n1CC(C)S3 (stereo not drawn)
  VDR inh: 17%

COC(=O)CCC[N+](C)(C)C
  VDR inh: -1%

Cc1cccc(C(=O)Nc2ccc(C(=O)/C=C/c3ccncc3)cc2)c1
  VDR inh: 16µM*

CCCC(O)c1nc2ccccc2n1Cc1ccccc1OC (stereo not drawn)
  VDR inh: 25%

Cc1ccc(C)c(N2CCN(S(=O)(=O)c3ccc4c(c3)CC(C)N4C(=O)C3CC3)CC2)c1 (stereo not drawn)
  VDR inh: -13%

Cc1cc(C)nc(Nc2n[nH]c(COc3cccc4ccccc34)n2)n1
  VDR inh: 4%

Cc1cc(CNC(=O)C(C)n2nc(C)c([N+](=O)[O-])c2C)c2ccccc2n1 (stereo not drawn)
  VDR inh: 0%

Cc1cc([N+](=O)[O-])ccc1NC(=O)C1CCCO1 (stereo not drawn)
  VDR inh: 4%

CNC(=O)NC(=O)CSc1nc2cc(C(=O)OC)ccc2c(=O)n1-c1ccccc1
  VDR inh: 6%

O=C1CC(c2ccc3c(c2)OCCO3)Oc2ccccc21 (stereo not drawn)
  VDR inh: -14%

Cn1c(CC(=O)NNC(=O)c2ccc(F)cc2F)nc2ccccc21
  VDR inh: 11%

O=C(Nc1ccccc1)O[C@@H]1C[C@H]2CCCC(=O)N3CC[C@@H](C1)[C@@H]23
  VDR inh: 3%

Cc1ccc(C(=O)Nc2ccc(C)c(S(=O)(=O)N3CCOCC3)c2)c(C)c1
  VDR inh: -3%

CCOc1ccccc1NC(=O)Nc1ccc2c(c1)CCC2
  VDR inh: 6%

CN(/N=C/c1ccncc1)c1cnn(-c2ccc(F)c(Cl)c2)c(=O)c1Cl
  VDR inh: 8%

C/C(=N\NC(=O)c1ccccc1O)c1ccc(NC(=O)Cc2ccccc2)cc1
  VDR inh: -6%

Cc1ccc(Cn2c(=O)n(CC3CCC(C(=O)N4CCC(C)CC4)CC3)c(=O)c3sccc32)cc1 (stereo not drawn)
  VDR inh: 4%

CCC(C)(C)n1nnnc1CN(Cc1cc2cc(OC)ccc2[nH]c1=O)C1CCCC1
  VDR inh: 1%

Cc1ccc(NC(=O)c2ccc(Cl)cc2Cl)c(C(=O)c2ccccc2)c1
  VDR inh: -24%

Clc1ccc(OCCN2CCOCC2)cc1Cl
  VDR inh: -19%

O=c1ccc2c(-c3ccccc3S(=O)(=O)O)c3ccc(O)c(O)c3oc-2c1O
  VDR inh: 35µM*

O=C(NCCc1ccccc1)C1CCC(CNS(=O)(=O)c2ccc(F)cc2)CC1 (stereo not drawn)
  VDR inh: -4%

Cc1sc2nc(SCC(=O)Nc3ccc(S(N)(=O)=O)cc3)[nH]c(=O)c2c1C
  VDR inh: 3%

CCOc1ccc(N=C2Sc3nc4ccc(C)cc4cc3CN2CCOC)cc1
  VDR inh: 3%

O=C(NCC(c1ccco1)N1CCCCC1)c1ccc(S(=O)(=O)Nc2ccccc2)cc1 (stereo not drawn)
  VDR inh: 9%

Cc1ccc(NC(=O)NCCOCCn2c(=O)oc3ccccc32)c(C)c1
  VDR inh: 7%

O=C(CSCc1ccc(Cl)cc1)NN=C1CCCC1
  VDR inh: 1%

CC1(C)CC(=O)C(C=NCCC2=CCCCC2)=C(O)C1
  VDR inh: -1%

CCOc1ccc(CNCc2ccc(C(=O)O)cc2)cc1OC
  VDR inh: -20%

CN(C(=O)COC(=O)c1ccccc1NC(=O)c1ccco1)C1CCS(=O)(=O)C1 (stereo not drawn)
  VDR inh: 9%

O=C(O)CCC(=O)Nc1ccc(S(=O)(=O)N2CCCC2)cc1
  VDR inh: -4%

O=C(NCc1ccccn1)c1n[nH]c(=O)c2ccccc12
  VDR inh: 6%

O=C(CSc1ncccn1)Nc1ncc(C(F)(F)F)cc1Cl
  VDR inh: 2%

Cn1c(CNC(=O)c2cccs2)nnc1SCC(=O)Nc1ccc(Cl)cc1
  VDR inh: -3%

CCOc1ccc(-c2nc(CSCC(=O)NCCc3ccccc3)c(C)o2)cc1
  VDR inh: 4%

Cc1cc(C)c(NC(=O)Cn2cc(S(=O)(=O)Cc3ccccc3F)c3ccccc32)c(C)c1
  VDR inh: -10%

O=C(Nc1ccc(O)cc1)/C(=C\c1ccncc1)NC(=O)c1ccccc1
  VDR inh: -11%

COc1ccc(C(=O)Nc2ccccc2C(=O)NC(C)C)cc1OC
  VDR inh: ?

CC1(C)CC(CC(=O)NC(=S)Nc2ccc([N+](=O)[O-])cc2)C(=O)O1 (stereo not drawn)
  VDR inh: 7%

O=c1[nH]c(C2CCN(S(=O)(=O)/C=C/c3ccccc3)CC2)nc2c1nnn2Cc1ccccc1
  VDR inh: -10%

CCCOC(=O)c1ccc(NC(=O)C2C3CCC(C3)C2C(=O)O)cc1 (stereo not drawn)
  VDR inh: -1%

CCOC(=O)C1CCCN(CC(=O)c2ccc(F)cc2)C1 (stereo not drawn)
  VDR inh: -27%

CSc1nc2ccc3nc(NC(=O)c4ccc(Cl)s4)sc3c2s1
  VDR inh: -21%

Cc1ccc(NC(=O)C2COc3ccccc3O2)cc1S(=O)(=O)N1CCCCC1 (stereo not drawn)
  VDR inh: -13%

Cc1cc(C(=O)NC2CCCC2)c2ccccc2n1
  VDR inh: 12%

Cc1ccc(NC(=O)CSc2nnc3scc(-c4ccc(Cl)cc4)n23)cc1
  VDR inh: 6%

An excerpt; the hit share may differ from the screen's.
